From PubChem
FGF22 binding: binders of human FGF22 protein, primary screen, FGF22 synaptogenesis inhibitor project, biophysical, thermal shift, single point; recombinant FGF22 thermal shift, SYPRO orange fluorescence; percent of sucrose octasulfate shift, DMSO zero; calls only at 9.99 µM; 1.5% of 340,000 active; Fibroblast growth factor 22 (Homo sapiens), Q9HCT0;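 active means melting point raised past a set limit in the mean and every replicate; inconclusive means no clear call; three in four hits are not shown here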
AF4-AF9 inh: inhibitors of AF4 peptide binding to AF9, primary screen, biochemical, AlphaScreen, biotin-AF4 peptide, FLAG-AF9, single point | inhibition, % at 10 µM | 0.47% of 350,000 active | AID 651704, 2012;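 active means every replicate reaching a set inhibition limit, whatever the replicate mean, cut at about 25% in these data; inconclusive means mean inhibition reaches that limit but some replicates miss it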;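 further: 0% = plate neutral control median and 100% = total signal loss; the record names both 10 and 1 µM as test concentration; the first replicate is given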
Target sequence (P42568 whole entry, looked up): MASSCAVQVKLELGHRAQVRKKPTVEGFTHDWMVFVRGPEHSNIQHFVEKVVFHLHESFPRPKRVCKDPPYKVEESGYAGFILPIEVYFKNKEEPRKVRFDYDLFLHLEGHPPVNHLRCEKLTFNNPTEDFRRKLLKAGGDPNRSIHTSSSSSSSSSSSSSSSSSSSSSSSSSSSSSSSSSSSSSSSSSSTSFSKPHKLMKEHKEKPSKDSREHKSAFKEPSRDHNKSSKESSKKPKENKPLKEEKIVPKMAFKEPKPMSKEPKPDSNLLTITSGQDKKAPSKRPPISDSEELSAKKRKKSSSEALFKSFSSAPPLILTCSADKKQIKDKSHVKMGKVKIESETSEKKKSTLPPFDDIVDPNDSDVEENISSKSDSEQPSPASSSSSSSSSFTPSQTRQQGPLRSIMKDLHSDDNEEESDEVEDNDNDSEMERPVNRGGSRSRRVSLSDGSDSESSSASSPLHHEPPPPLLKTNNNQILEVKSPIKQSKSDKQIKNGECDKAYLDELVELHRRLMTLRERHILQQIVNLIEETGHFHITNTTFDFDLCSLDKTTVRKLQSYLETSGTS
Ecoli growth: E. coli growth inhibition, primary screen, OD600. 0.21% of 330,000 active. AID 1053175, 2014. OD600 absorbance (no concentration beside the values). Escherichia coli growth, 23 h; active compounds read low;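 active means OD600 absorbance below the run mean of sample wells minus 3.6 SD, in any replicate, cut at about 0.56 in these data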;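 further: stock transfer was 300 nL into about 60 µL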
ALR inh: inhibitors of human ALR sulfhydryl oxidase, primary screen, biochemical, H2O2 detection, HRP-luminol luminescence, single point. FAD-linked sulfhydryl oxidase ALR (Homo sapiens), P55789. 3.8% of 290,000 active. purified ALR, DTT oxidation. inhibition, % (no concentration beside the values). AID 485317, 2010;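 active means mean and each replicate at 75% or more; inconclusive means only one of the two met; inactive means neither met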;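 further: stock transfer was 7.5 nL into about 7.5 µL; 0% = neutral wells and 100% = wells with inactivated enzyme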
Vif A3G: inhibitors of Vif binding to APOBEC3G peptide, primary screen, biochemical, TR-FRET, GST-Vif 1-94, biotin-A3G peptide, dose response retest (AID 1117319); Virion infectivity factor (Human immunodeficiency virus type 1 group M subtype B (isolate …; TR-FRET GST-Vif / biotin-A3G peptide binding; higher % means a stronger effect; test concentration not given here; strong numbers were not always called active; inhibition, %; hits with a dose series show IC50 in µM; 0.57% of 260,000 active;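 active means above the screen mean plus three standard deviations and confirmed in dose response; inconclusive means results disagree or hit not tested in dose response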;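 further: Vif residues 1-94 fused to GST binding biotinylated APOBEC3G peptide 110-148; 0% = full assay without inhibitor and 100% = GST in place of GST-Vif; retest series ran down from 100 µM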
HNF4A DNA FP: change in binding of human HNF4A to DNA, primary screen, biochemical, fluorescence polarization, FITC-DNA | 1 h | activity change, % at 10 µM | 0.3% of 360,000 active; in the data active means activity change above about 30%, passing the limit was not always enough;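 further: controls were the assay level and a saturating level of protein; the project sought stronger binding though the title names inhibitors; some compounds called inactive have numbers as strong as hits; positive values seem to mean higher polarization but the record does not say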
Target sequence (P41235 whole entry, looked up): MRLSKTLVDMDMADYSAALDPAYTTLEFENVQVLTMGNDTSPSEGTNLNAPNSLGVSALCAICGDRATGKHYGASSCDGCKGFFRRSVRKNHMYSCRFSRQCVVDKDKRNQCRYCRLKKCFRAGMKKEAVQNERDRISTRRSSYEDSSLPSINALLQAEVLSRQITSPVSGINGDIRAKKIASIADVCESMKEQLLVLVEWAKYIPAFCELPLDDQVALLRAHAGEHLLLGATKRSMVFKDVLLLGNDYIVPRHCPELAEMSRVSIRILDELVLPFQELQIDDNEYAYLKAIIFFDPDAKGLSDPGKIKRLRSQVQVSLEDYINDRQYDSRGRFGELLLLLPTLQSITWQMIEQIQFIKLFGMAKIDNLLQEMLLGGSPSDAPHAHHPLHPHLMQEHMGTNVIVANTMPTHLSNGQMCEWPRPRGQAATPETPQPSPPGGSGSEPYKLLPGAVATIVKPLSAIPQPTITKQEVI
rRNA inh HTS: reduced GFP signal of wild-type E. coli, primary screen, bacterial rRNA inhibitor project, GFP/RFP fluorescence, OD600, single point; E. coli WT GFP vs humanized-ribosome RFP mutants, 24 h; active compounds read low; DMSO median 0, no signal -100; GFP signal change (wild-type ribosome), % (concentration not given with the values); 1.6% of 350,000 active;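 active means significant combined selectivity score with lowered wild-type GFP, culture density cut under 30%, mutant RFP and density less affected; inactive means any of these conditions unmet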; further: one replicate is shown; some compounds called inactive have numbers as strong as hits
rRNA inh HTS OD600: further read-out of rRNA inh HTS, marked with its call; OD600 change, %; measured here: OD600 growth;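 optical density of the mix in the first replicate; 0 = DMSO median and -100 = no signal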
rRNA inh HTS RFP: second read-out of rRNA inh HTS, no call of its own (marks repeat the call); RFP signal change, %; measured here: RFP humanized mutant strains;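 first replicate; 0 = DMSO median and -100 = no signal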
Numbers without * were called inactive; i = inactive; ? = inconclusive; . = no result given.

SMILES | FGF22 binding | AF4-AF9 inh | Ecoli growth | ALR inh | Vif A3G | HNF4A DNA FP | rRNA inh HTS | rRNA inh HTS OD600 | rRNA inh HTS RFP
Cc1ccc(C(NC(=O)NN2CCN(C)CC2)C(Cl)Cl)cc1F (configuration not stated) | i | -2.6 | 0.64 | . | -1% | -2.4 | . | . | .
C[C@H](CO)N1C[C@H](C)[C@H](CN(C)Cc2ccc(C(=O)Nc3ccccc3N)cc2)Oc2ccc(NS(=O)(=O)c3ccc(F)cc3)cc2C1=O | i | -12 | . | . | . | . | 3 | -1 | 3.9
Cc1cccc(/C=C/c2onc(C)c2S(=O)(=O)N2CCC(C(=O)N3CCCCCC3)CC2)c1 | i | 7.3 | 0.71 | -2 | . | -1.5 | 9 | 4 | -0.3
Cc1ccc(C(=O)c2c[nH]c(C(=O)NCCCN3CCOCC3)c2)cc1 | . | . | 0.72 | 68 | -2% | 5.3 | -2 | 3 | -2.6
Cc1ccc(N2CCN(C(=S)c3ccc(N(C)C)cc3)CC2)cc1 | . | . | 0.67 | 18 | ? | 9.6 | . | . | .
O=C(CCn1c(=O)sc2ccccc21)Nc1cccnc1 | . | -17 | 0.61 | -6 | 26% | 0.0 | 3 | 7 | 3.8
O=C(C[C@@H]1C[C@@H]2c3cc(NC(=O)Cc4ccncc4)ccc3O[C@@H]2[C@@H](CO)O1)NCc1ccc2c(c1)OCO2 | i | -1.8 | . | . | . | . | -4 | 2 | -3.2
CN(CCc1ccccc1)C(=O)c1cccc(NC(=O)Cc2cccc(NC(=O)C3CCCN(S(=O)(=O)c4cccc([N+](=O)[O-])c4)C3)c2)c1 (configuration not stated) | i | -6.3 | 0.71 | . | 0% | 1.5 | 14 | 19 | 1.5
COc1ccccc1CN1C[C@@H]2C[C@@H](c3ccc(C)c(C)c3)N3CCC[C@@]23C1=O | i | 3.8 | 0.66 | 1 | . | -1.7 | -13 | -16 | 16
O=S(=O)(Cc1ccccc1Cl)NCCOc1ccccc1 | i | 0.1 | 0.64 | -8 | -5% | -4.2 | 3 | 2 | -1.0
O=C(Cn1cnc2ccccc2c1=O)N1CCOCC1 | . | . | 0.73 | . | 3% | -2.5 | . | . | .
C[C@@H]1CN([C@H](C)CO)C(=O)c2cccc(NS(=O)(=O)c3ccccc3)c2O[C@@H]1CN(C)C(=O)Nc1cccc2ccccc12 | i | 2.4 | . | . | . | . | 7 | -1 | 3.9
CN(Cc1ccccc1F)C(=O)c1ccc(NS(=O)(=O)c2ccc3[nH]c(=O)[nH]c3c2)cc1 | i | -2.1 | . | -4 | . | -3.4 | -5 | -3 | -0.5
Clc1ccccc1C1CC(c2ccccc2)Nc2ncnn21 (configuration not stated) | i | 0.6 | 0.71 | -13 | -5% | -0.1 | 0 | -15 | -5.9
CN(C)/C=C1\C(=O)NN=C1C(F)(F)F | i | -0.7 | 0.73 | -10 | 2% | 2.9 | 6 | 4 | 0.2
Cn1cc([C@]2(O)C(=O)Nc3ccc(OC(F)(F)F)cc32)c2ccccc21 | i | . | . | . | . | 3.0 | -34 | -40 | -10
CCOC(=O)C1=C(C)c2ccccc2OC1(CC)C(=O)OCC (configuration not stated) | i | -0.6 | . | . | . | -4.1 | -11 | -7 | -0.2
COCc1[nH]nc2c1C(c1ccnc3ccccc13)C(C#N)=C(N)O2 (configuration not stated) | . | . | 0.61 | 3 | 15% | -1.6 | . | . | .
CCOc1ccccc1N1CCN(C(=S)NC(=O)C23CC4CC(CC(C4)C2)C3)CC1 | i | 4.3 | 0.68 | 5 | . | -1.9 | . | . | .
C[C@@H]1NC(=O)c2cc([N+](=O)[O-])cc(I)c2NCC[C@@H](C(N)=O)NC(=O)[C@H](CC(N)=O)NC1=O | . | . | . | -27 | 1% | 2.3 | . | . | .
COc1cccc(OC)c1C(=O)Nc1ccc(N2CCN(C(=O)c3ccco3)CC2)cc1 | i | 1.1 | 0.71 | . | . | 3.2 | 2 | 11 | -0.4
CCC(=O)NNc1ncnc2c1cnn2C | i | 0.2 | 0.7 | 19 | -7% | 5.5 | 2 | 8 | -0.9
Cc1cc(C)cc(NC(=O)CSc2nc(N)c(NC(=O)c3ccc(Br)o3)c(=O)[nH]2)c1 | i | -0.4 | 0.72 | -3 | 1% | 1.1 | 2 | 9 | 2.0
CC(=O)C1=C(c2ccccc2)NC(=S)NC1c1cc(Cl)c(OC(C)C)c(Cl)c1 (configuration not stated) | . | . | 0.69 | 12 | . | 0.3 | . | . | .
O=C(c1cc2c(s1)CCC2)N1C(=O)c2ccccc2S1(=O)=O | . | . | 0.76 | 0 | -3% | 1.1 | . | . | .
CCSc1nc2ccccc2n1Cc1cccc([N+](=O)[O-])c1 | . | . | 0.72 | -4 | -3% | 0.9 | . | . | .
COc1ccc(C(=O)OCC(=O)N2CCN(S(=O)(=O)c3ccc(C)cc3)CC2)cc1[N+](=O)[O-] | i | 1.0 | 0.67 | . | . | 2.2 | -3 | 14 | -0.4
Cc1cc(C)cc(-n2c(C)cc(/C=N/NC(=O)c3ccncc3)c2C)c1 | i | 9.8 | . | . | 5% | 8.2 | 7 | -12 | -2.1
CCCC(=O)Nc1cc(-c2nc3ncccc3o2)ccc1C | . | . | 0.75 | -2 | -7% | 1.7 | . | . | .
COC(=O)c1ccc(NC(=S)NCCc2ccccc2)cc1 | . | . | 0.63 | -1 | -3% | 0.9 | . | . | .
c1ccc(-c2cnc(-c3ccccn3)nn2)cc1 | i | 3.5 | 0.74 | 8 | . | -2.6 | 8 | 0 | 2.5
Cn1cnnc1SCC(=O)NCCc1ccc(Cl)cc1Cl | i | -0.9 | 0.7 | 1 | . | 2.5 | 11 | 8 | 1.9
Cc1ccnc(NC(=O)CCNC(=O)c2ccc(Br)cc2)c1 | i | -4.5 | . | . | . | 4.8 | 4 | 11 | 1.9
CC(C)=CCN1CCC(n2nccc2NC(=O)c2ccccc2Cl)CC1 | i | -0.5 | 0.7 | -4 | . | 3.2 | 11 | 3 | 0.9
C[C@H](CO)N1C[C@H](C)[C@H](CN(C)C(=O)Nc2ccc(C(F)(F)F)cc2)Oc2ccc(NC(=O)CCN3CCOCC3)cc2C1=O | i | -9.1 | . | . | . | . | -4 | -9 | -0.1
CC(C)NC(=O)N(C)C[C@@H]1Oc2ccc(NC(=O)C3CC3)cc2C(=O)N([C@H](C)CO)C[C@H]1C | i | -2.3 | . | . | . | . | 3 | 15 | 0.8

An excerpt from above in order of their number in ALR inh, ascending:
structure | AF4-AF9 inh | ALR inh | Vif A3G | HNF4A DNA FP | rRNA inh HTS | rRNA inh HTS OD600 | rRNA inh HTS RFP
CCCC(=O)Nc1cc(-c2nc3ncccc3o2)ccc1C | . | -2 | -7% | 1.7 | . | . | .
O=C(c1cc2c(s1)CCC2)N1C(=O)c2ccccc2S1(=O)=O | . | 0 | -3% | 1.1 | . | . | .
Cn1cnnc1SCC(=O)NCCc1ccc(Cl)cc1Cl | -0.9 | 1 | . | 2.5 | 11 | 8 | 1.9

Continued:
SMILES | FGF22 binding | AF4-AF9 inh | Ecoli growth | ALR inh | Vif A3G | HNF4A DNA FP | rRNA inh HTS | rRNA inh HTS OD600 | rRNA inh HTS RFP
C=C1CCC[C@]2(C)C[C@H]3OC(=O)C(CNCC(OC)OC)[C@H]3CC12 (some centres not stated) | i | -2.7 | 0.63 | -21 | -2% | 1.1 | 8 | 9 | -0.4
COc1ccc(NC(=O)Nc2cccc3c2O[C@H](CN(C)Cc2ccc(C(=O)Nc4ccccc4N)cc2)[C@@H](C)CN([C@@H](C)CO)C3=O)cc1 | i | 3.0 | . | . | . | . | -9 | -4 | -1.6
COCCN1CCN(C(=O)c2ccc3nc(Cc4ccc(OC)c(OC)c4)oc3c2)CC1 | i | -3.6 | 0.67 | -1 | -3% | -1.2 | 14 | 12 | 4.3
CCS(=O)(=O)Nc1ccc2c(c1)C(=O)N(C)[C@H]1CC[C@@H](CC(=O)OC)O[C@@H]1CO2 | i | -3.7 | . | . | . | . | 1 | 4 | 0.1
C[C@@H]1CN([C@H](C)CO)C(=O)c2c(c3ccccc3n2C)-c2ccccc2CO[C@@H]1CN(C)Cc1ccc(F)cc1 | i | 0.5 | . | . | . | . | -4 | -6 | 6.6
CC(NC(=O)CN1CCCC1)c1ccccc1 (configuration not stated) | i | -2.7 | 0.66 | -3 | 1% | 2.0 | 3 | 11 | 1.7
COc1ccc(-c2[nH]ncc2CN2CCC(OCc3ccccc3)CC2)c(F)c1 | i | 1.0 | 0.71 | -8 | ? | 0.0 | 12 | 4 | 2.3
c1ccc2nc3c(cc2c1)CCCCC3 | i | -4.2 | 0.68 | -7 | 1% | 2.6 | 13 | -4 | -3.2
COc1ccc(NC(=O)CN(C)C(=O)c2ccc(S(=O)(=O)Nc3ccccc3F)cc2)cc1 | i | -2.2 | 0.69 | 15 | -2% | -0.8 | 9 | 0 | 2.6
Cc1ccc(NC(=O)c2cccc(S(=O)(=O)N3CCCc4ccccc43)c2)nc1 | i | 3.9 | 0.73 | -1 | -7% | -0.2 | -28 | -27 | -2.1
O=C(CCN1CCCCC1)NCC[C@@H]1CC[C@H](NC(=O)C2CCC2)[C@@H](CO)O1 | i | -1.2 | . | . | . | . | 1 | -2 | -2.6
C=CCNC(=O)NC(=O)COC(=O)/C=C/c1cccc([N+](=O)[O-])c1 | i | 0.1 | 0.69 | -3 | ? | 0.9 | 8 | 15 | -3.1
O=C(COc1ccc(Br)cc1F)NC1CC1 | i | -0.2 | 0.65 | 1 | -5% | 9.3 | -1 | 6 | -1.2
O=C(CSc1n[nH]c(=O)n1C1CC1)Nc1ccc(Cl)c(Cl)c1 | i | -0.4 | 0.62 | 0 | 5% | 2.2 | -20* | -9.3* | -4.3*
COc1ccc(CN(C)C[C@H]2Oc3ccc(NC(=O)Nc4ccc(OC)cc4)cc3CC(=O)N([C@H](C)CO)C[C@@H]2C)cc1 | i | 18 | . | . | . | . | -4 | -11 | 10
O=c1c2ccccc2nnn1CSc1nc2ccccc2c(=O)n1Cc1ccco1 | . | . | 0.68 | -3 | . | 2.5 | . | . | .
Cc1ccc(CSc2ccc3nnc(-c4ccccn4)n3n2)cc1 | i | 0.8 | . | . | -9% | 3.5 | -2 | 4 | -2.9
CCNC(=O)NC(=O)CSc1ccccc1F | . | . | 0.68 | -3 | . | 2.5 | . | . | .
CC(=O)Nc1ccc(S(=O)(=O)NC2=NCN(c3cccc([N+](=O)[O-])c3)CN2)cc1 | i | 0.3 | 0.61 | -1 | 2% | -1.0 | 8 | 15 | -2.0
CCn1c(SCC(=O)NC2CCCC2)nnc1-c1ccoc1C | i | 2.6 | 0.65 | 25 | . | -3.9 | 5 | 6 | -0.1
O=C1CC(N2CCN(c3ccccn3)CC2)C(=O)N1c1ccc(Cl)cc1 (configuration not stated) | i | -0.8 | 0.66 | 3 | . | -5.3 | 0 | 8 | 1.2
COCCCN(C(=O)C1CCC1)c1c(N)n(Cc2ccccc2)c(=O)[nH]c1=O | i | 0.9 | 0.72 | -5 | -1% | -0.4 | 5 | 4 | -2.2
C#CCOc1ccc(CNC[C@H]2O[C@@H](n3ccc(N)nc3=O)[C@H](O)[C@@H]2O)cc1 | i | -3.6 | . | . | 3% | 5.1 | . | . | .

The list is partial. The share of hits here may be higher or lower than overall.
